Screens: PubChem BioAssay, National Center for Advancing Translational Sciences (NCATS)
Menin-MLL FL inh = menin-MLL binding inhibition, fluorescein peptide. 290,000 tested, under 10 active. Fluorescence polarization, fluorescein-MLL peptide displacement from menin. FP activity change, % at 61.4 µM; inconclusive = falling polarisation curve, or a change in total fluorescence; inactive = total fluorescence flat and polarisation flat or rising; no compound was filed as active; the % refers to the polarisation; negative = inhibition;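 further: % of control where 0% means no effect; inhibitors lower the polarisation; unlabelled MLL peptide was the positive control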
TRPML1 blocker = blocks the human TRPML1 channel; actives 0.02% (n = 390,000); AID 624415; activity change, negative = inhibition, % (no concentration beside the values); TRPML1-inducible cells, Ca2+ dye fluorescence, FDSS; active compounds read low; inhibition of EC80 agonist-evoked calcium signal; Q9GZU1; in the data active means activity change below about -50%; inconclusive means about -30% to -50%; inactive means above about -30%;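 further: stimulus is agonist 54-4 at its EC80 concentration; on the % scale 0 is the no-effect control and ±100 the full control effect; compound concentration not given in the record; the text of the record puts the active cut at -80%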
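Tet-induced TRPML1-DL cells loaded with Ca8 no-wash calcium dye were read kinetically on FDSS. Compound addition was followed by EC80 agonist 54-4 (4 uM final); inhibition was read over 110 s.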
ClpP mod = qHTS Assay for Activators of ClpP. ATP-dependent Clp protease proteolytic subunit (Bacillus subtilis (strain 168)), P80244. purified B. subtilis ClpP, FRET peptide cleavage, 20 min. Potency, µM (titrated, usually from 57.5 µM), inactives show at the highest dose activity change, negative = active. actives 1.9% (n = 340,000); active = well fitted falling curve with a large enough effect; inconclusive = small, poorly fitted or top-dose-only effect; inactive = no such curve, though single readings can be large or run the other way; further: potency means the concentration at half of the fitted maximal effect; the source files actives as falling curves though it sought activators and does not explain the sign; nearly all actives have a fitted effect of over 65% in size; many hits overshoot -100%
Target sequence (P80244 whole entry, looked up): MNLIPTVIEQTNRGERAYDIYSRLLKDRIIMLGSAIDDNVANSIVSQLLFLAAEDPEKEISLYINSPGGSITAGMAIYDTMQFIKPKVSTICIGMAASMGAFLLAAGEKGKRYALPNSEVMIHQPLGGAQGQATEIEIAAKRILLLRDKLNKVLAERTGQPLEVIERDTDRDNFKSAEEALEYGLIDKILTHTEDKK
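FRET quenching reversal measured ClpP activation: 10 microg/mL B. subtilis ClpP at pH 8 with the FRET-FV decapeptide, read at 430 nm after 320 nm excitation. The 20-min minus 0-min signal was scaled between DMSO/no-enzyme wells and ADEP (5.8 microM final).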
TRPML1 agonist = activates the human TRPML1 channel | Q9GZU1 | TRPML1-expressing cells, Ca2+ dye fluorescence, FDSS; host cell line not named in the record; reference of the full effect not given here | activation, % (test concentration not listed) | actives 0.12% (n = 410,000) | AID 624414; in the data active = activation above about 50%; inconclusive = about 30% to 50%; inactive = below about 30%; further: 0% is about no effect; the text of the record puts the active cut at 80%
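Agonist activity was taken from a 110 s kinetic Ca2+ dye read on the FDSS after pinning compounds onto TRPML1-DL cells. The cells were seeded at 1,500/well with Tet inducer, incubated about 16 h, then dye-loaded at room temperature.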
PINK1 expr mod = modulators of PINK1 expression; PINK1 immunofluorescence, high-content cytometry, 24 h; Potency, µM (series often up to 76.6 µM), for the others: at the highest dose activation (PINK1 increase), most hits filed as activators; actives 0.2% (n = 410,000); AID 624263; active = well fitted activation curve with a large enough effect; inconclusive = small, poorly fitted or top-dose-only effect; inactive = flat fitted curve, though single readings scatter; cell line not stated here;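 further: potency means the concentration at half of the fitted maximal effect; % of control where 0% means no effect; nearly all actives have a fitted effect of over 65% in size; a mitochondrial uncoupler was the plate control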
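Stable cell line treated 24 h with compounds at 5 concentrations (CCCP controls), then fixed and immunostained for PINK1 plus nuclear and cell stains; PINK1 immunofluorescence quantified by laser-scanning microplate cytometry.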
TRPV1 PAM = human TRPV1 potentiation | TRPV1-expressing cells, Fluo-8 calcium influx, capsaicin EC20 potentiation; host cell line not named in the record; control for the full effect not named in the record | potentiation, % at 8.33 µM | actives 0.02% (n = 320,000); active means potentiation above 80%; inconclusive means 30% to 80%; inactive means below 30%; further: 0% is about no effect
Target sequence (Q8NER1 whole entry, looked up): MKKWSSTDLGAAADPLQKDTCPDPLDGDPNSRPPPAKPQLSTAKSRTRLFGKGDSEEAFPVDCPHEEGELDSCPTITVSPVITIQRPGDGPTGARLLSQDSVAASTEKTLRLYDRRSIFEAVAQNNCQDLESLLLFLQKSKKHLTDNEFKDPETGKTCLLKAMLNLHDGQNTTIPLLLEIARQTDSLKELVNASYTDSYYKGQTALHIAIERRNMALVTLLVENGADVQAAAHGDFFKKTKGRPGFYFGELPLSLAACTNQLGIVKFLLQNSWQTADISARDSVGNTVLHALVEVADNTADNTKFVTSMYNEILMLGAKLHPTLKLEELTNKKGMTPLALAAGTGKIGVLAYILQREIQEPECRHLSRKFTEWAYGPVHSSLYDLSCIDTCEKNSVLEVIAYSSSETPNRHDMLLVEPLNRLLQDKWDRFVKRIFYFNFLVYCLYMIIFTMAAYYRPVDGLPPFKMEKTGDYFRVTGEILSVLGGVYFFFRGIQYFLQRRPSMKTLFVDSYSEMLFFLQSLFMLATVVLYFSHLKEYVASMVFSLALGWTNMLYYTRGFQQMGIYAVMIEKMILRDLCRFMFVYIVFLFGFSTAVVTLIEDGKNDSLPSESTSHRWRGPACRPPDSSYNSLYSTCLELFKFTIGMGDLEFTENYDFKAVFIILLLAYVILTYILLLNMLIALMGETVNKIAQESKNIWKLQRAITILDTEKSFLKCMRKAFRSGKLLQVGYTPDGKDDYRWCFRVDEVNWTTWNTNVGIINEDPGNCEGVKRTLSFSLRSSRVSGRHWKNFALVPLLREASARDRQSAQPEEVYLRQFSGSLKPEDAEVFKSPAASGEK
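Cells expressing TRPV1 were dye-loaded with Fluo-8 and read kinetically: 10 s baseline, 3 min after compound (agonist portion), then 2 min after EC20 capsaicin (allosteric enhancer portion). Calcium-bound dye fluorescence at 480/520 nm.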
Sfp PPTase inh = blocks B. subtilis Sfp PPTase activity; actives 3.5% (n = 310,000); Q9F4F7; Biochemical Sfp PPTase activity, qHTS; Potency, µM, for the others: max response, negative = inhibition, hits mostly inhibitors; active means well fitted inhibition curve with a large enough effect; inconclusive means small, poorly fitted or top-dose-only effect, or another doubt; inactive means no such curve, though single readings can be large or run the other way;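 further: the enzyme is Sfp with the accession as filed and its product quenches rhodamine fluorescence; potency means the concentration at half of the fitted maximal effect; 0% = enzyme reaction without inhibitor and -100% = no enzyme wells; top concentration of the series not given in the record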
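Fluorescence-quenching assay: 15 nM Sfp-PPTase preincubated 15 min at room temperature with compound, then 5 uM rhodamine-CoA and 12.5 uM BHQ-2-labelled YbbR peptide added. Fluorescence (ex 525/em 598 nm) read at start and after 30 min; difference gives rate.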
* = called active by the depositor; ? = inconclusive; nt = no result given; [ ] = another dose, or the depositor's remark.

Structure,TRPML1 blocker,Menin-MLL FL inh,PINK1 expr mod,ClpP mod,Sfp PPTase inh,TRPML1 agonist,TRPV1 PAM
O=C(CCC1CCCN(C(=O)C2(c3ccccc3)CC2)C1)N1CCN(c2ccccn2)CC1 (stereo not drawn),16,-1.4,1.0%,nt,-3%,2.3,-9
COc1cc(C)c(Br)cc1S(=O)(=O)N1CCCC1,37,-2.7,0.0%,-1.4%,8%,0.4,-9
O=C(c1cccc(F)c1)N1CCN(C(=O)c2cc(-c3ccc(Cl)cc3Cl)on2)CC1,-12,4.4,nt,2.1%,-8%,1.0,1
O=C(CSCc1cnn(-c2ccccc2)c1-n1cccc1)NCc1ccc(Cl)cc1,-5,nt,1.1%,-1.4%,nt,3.7,nt
COc1ccc(S(=O)(=O)N2CCC(NC(=O)Nc3ccc(C)cc3)CC2)cc1,-20,3.8,-0.6%,-1.0%,-3%,-0.5,nt
Cc1cc(Cl)c2oc(C(=O)N(C)Cc3ccon3)c(C)c2c1,3,0.6,1.0%,-2.2%,-15%,0.1,9
CN(C(=O)CSc1ncccc1C(=O)O)c1ccccc1,3,-1.5,1.1%[38.3 µM],1.1%,2%,0.7,-14
Cc1ccc([N+](=O)[O-])c(OCC(O)CNC(C)(C)C)c1 (stereo not drawn),15,-3.8,1.4%,-4.7%,-2%,-0.3,17
COc1ccccc1Cn1c(=S)[nH]c2cc(C(=O)N3CC(C)CC(C)C3)ccc2c1=O (stereo not drawn),-6,nt,0.3%,0.9%,nt,-0.7,nt
O=C1c2ccccc2C(=O)N1CCc1nc(-c2ccc(Cl)cc2)no1,8,-1.7,nt,-3.9%,10%,0.9,9
COc1ccccc1C(=O)N/N=C(\C)CC(=O)Nc1ccccc1NC(C)=O,4,2.1,0.3%,0.8%,-2%,-0.8,-16
COC(=O)c1cc(C(=O)OC)cc(S(=O)(=O)Nc2ccc(Cl)c(N)c2)c1,-17,1.7,1.7%,-6.2%,19%,-1.7,12
Cn1c(=O)c2c(nc(SCCN3CCOCC3)n2C)n(C)c1=O,nt,2.2,0.0%,2.4%,22%,nt,3
Cc1cc(S(=O)(=O)N2CCN(c3ccc(F)cc3)CC2)ccc1-n1cnnn1,11,8.4,0.0%,nt,3%,0.0,-14
CC(C)(C)c1ccc(S(=O)(=O)NC(=O)C2(C)CCN2C(=O)CC2CCCCC2)cc1 (stereo not drawn),nt,nt,0.2%,-2.6%,nt,0.5,nt
O=C(OCC(=O)N1CCc2ccccc21)c1ccncc1,11,nt,7.9%,0.2%,nt,-0.1,3
O=C(Cn1ncc2c(=O)oc3ccccc3c21)NCC1COc2ccccc2O1 (stereo not drawn),-28,-0.9,2.8%,-5.0%,5%,1.5,-6
COc1ccc(CSc2nc(C)cc(=O)[nH]2)cc1,4,6.1,2.4%,-1.1%,1%,1.8,-10
CCOc1ccc(NC(=O)CN2CCCN(Cc3cc(C)ccc3C)S2(=O)=O)cc1,21,nt,-0.9%,-2.2%,nt,1.7,nt
CN(C)c1ccc(/C=N\Nc2ccc([N+](=O)[O-])cc2[N+](=O)[O-])cc1Cl,nt,nt,0.4%,-1.2%,nt,-0.1,nt
COc1ccc(NC(=O)C(c2ccc(OC)cc2)N(C)C(=O)CC2NC(=O)NC2=O)cc1 (stereo not drawn),-10,7.3,-1.6%,-0.1%,4%,0.3,-4
Nc1c(-c2ccccc2)cnn1C1CCS(=O)(=O)C1 (stereo not drawn),-5,1.0,-1.4%,-0.7%,6%,-0.6,-26
CCCCCc1nnc(NC(=O)C2CCCO2)s1 (stereo not drawn),-15,-0.2,-0.2%[38.3 µM],0.0%,2%,1.5,-3
Cn1c(SCC(=O)Nc2cc(S(=O)(=O)N3CCOCC3)ccc2N2CCOCC2)nnc1-c1ccncc1,-12,-0.6,0.9%,-1.9%,5%,-0.2,4
CNC(=O)NC(=O)CSc1nnc(-c2ccco2)n1Cc1ccccc1,15,1.4,1.5%,-0.7%,10%,-0.1,6

Compounds shown so far that contain a tert-butyl group, in the order listed:
Structure,TRPML1 blocker,Menin-MLL FL inh,PINK1 expr mod,ClpP mod,Sfp PPTase inh,TRPML1 agonist,TRPV1 PAM
Cc1ccc([N+](=O)[O-])c(OCC(O)CNC(C)(C)C)c1 (stereo not drawn),15,-3.8,1.4%,-4.7%,-2%,-0.3,17
CC(C)(C)c1ccc(S(=O)(=O)NC(=O)C2(C)CCN2C(=O)CC2CCCCC2)cc1 (stereo not drawn),nt,nt,0.2%,-2.6%,nt,0.5,nt

The results go on.
Structure,TRPML1 blocker,Menin-MLL FL inh,PINK1 expr mod,ClpP mod,Sfp PPTase inh,TRPML1 agonist,TRPV1 PAM
Nc1nc(Cl)cc(N2CCC(c3cc(-c4ccc(Cl)cc4Cl)n[nH]3)CC2)n1,33,5.9,7.3%[38.3 µM],-1.2%,5%,0.7,-1
CCOC(=O)Nc1ccc2c(c1)Nc1ccccc1S2,-7,1.2,-4.0%[38.3 µM],0.1%,6%,-0.4,-7
Cc1ccc(CNC(=O)C(NS(=O)(=O)c2ccc3nc(C)sc3c2)C(C)C)cc1 (stereo not drawn),7,-0.6,1.1%,-1.3%,-3%,-0.5,nt
COC(=O)CNC(=O)COC(=O)/C=C/c1ccccc1[N+](=O)[O-],16,-3.2,2.0%,-0.8%,9%,-0.3,-4
COCCn1c(SCC(=O)NC2CCCCC2C)nnc1-c1ccncc1 (stereo not drawn),-3,-0.4,-2.3%,nt,13%,-0.3,5
CCOC(=O)Cc1c(C)nc(N)[nH]c1=O,11,-1.1,0.7%,-1.5%,20%,0.8,8
O=C(Cc1cccc(NC(=O)C2CCCN(C(=O)c3ccccc3)C2)c1)Nc1ccc(C(=O)N2CCCCC2)cc1 (stereo not drawn),3,nt,-0.4%,-0.7%,nt,-0.9,nt
CCCc1nn2c(=O)c(C(c3ccc(C)cc3)c3c(O)nc4sc(CCC)nn4c3=O)c(O)nc2s1,12,15,-1.2%,-22%,9%,-0.5,?
COc1ccnc2c1c(=O)n(Cc1ccc(Cl)cc1)c(=O)n2C,11,2.5,4.3%,-9.4%,-1%,0.6,1
CC(=O)N1c2ccc(S(=O)(=O)N3CCC(C(=O)Nc4ncccc4C)CC3)cc2CC1C (stereo not drawn),30,nt,0.1%,-2.9%,11%,0.7,-15
COc1ccc(NC(=O)Cn2c(=O)n(CCc3ccccc3)c(=O)c3sc4ccccc4c32)cc1,3,nt,2.5%,4.0%,nt,-0.6,nt
CCOc1ccc(NS(=O)(=O)c2ccc(C(=O)N3CCCC(C)C3)cc2)cc1 (stereo not drawn),-9,nt,3.3%,nt,nt,9.7,2
CC(C)(C)C(=O)c1c(N)[nH]c(C(=O)c2ccccc2)c1-c1ccc(Br)cc1,nt,nt,3.3%,1.8%,nt,-0.4,nt
CC(OC(=O)C1CCC(=O)N1)C(=O)Nc1cc(Cl)cc(Cl)c1 (stereo not drawn),5,0.8,-0.6%,-1.1%,14%,0.1,19
Cc1nc(SC(C)C(=O)NCc2ccc3c(c2)OCO3)nc(C)c1C (stereo not drawn),12,nt,-2.5%,-1.4%,nt,0.0,nt
CCN(C(=O)COC(=O)CC1CCCCC1)c1c(N)n(Cc2ccccc2)c(=O)[nH]c1=O,11,nt,2.1%,2.6%,nt,-0.7,6
COc1cc(C(=O)NCCC(=O)NC2CCCCCCC2)cc(OC)c1OC,8,3.6,-0.4%[38.3 µM],0.4%,12%,-0.5,-17
CCOc1ccc(-n2c(Cc3cc(=O)[nH]c(=O)[nH]3)nnc2SCC(N)=O)cc1,-2,6.3,-0.6%[38.3 µM],-19%,7%,0.2,-14
N#Cc1ccc(OCC(=O)Nc2ccc(S(=O)(=O)N3CCOCC3)cc2)cc1,-7,nt,-0.8%,-2.2%,nt,0.2,nt
CC(=C/C(=O)O)/C(=C/c1ccccc1)C(=O)O,6,4.1,-1.8%,-0.9%,-1%,1.1,12
CC(=O)c1cccc(OCc2cc(C(=O)N3CCC(N4CCCCC4)CC3)no2)c1,-1,nt,-0.3%,1.2%,10%,-0.3,4
CC(=O)Nc1ccc(NC(=O)C23CC4CC(C2)CC(n2cnc(Br)n2)(C4)C3)cc1,-9,-2.7,4.6%,nt,12%,-0.2,12
CN(/N=C/c1ccccc1Cl)c1ncc(Cl)cc1C(F)(F)F,-1,-2.6,?,nt,-1%,-0.5,-1
COc1cc(CC(=O)OCC(=O)Nc2ccc3c(c2)OCO3)cc(OC)c1OC,-11,1.1,1.8%,0.5%,13%,-0.3,10
Cc1nn(C(C)c2n[nH]c(=S)n2-c2ccc(F)cc2)c(C)c1[N+](=O)[O-] (stereo not drawn),-15,2.4,-3.9%[38.3 µM],0.0%,4%,-0.6,-4
O=C(NCc1ccc2c(c1)OCO2)C1CC(=O)N(c2ccc(F)cc2)C1 (stereo not drawn),-2,5.8,-0.8%,-0.9%,14%,0.5,-2
CCc1ccccc1-n1c(SCC(=O)Nc2ccc(C)cc2)nc2n[nH]c(C)c2c1=N,0,nt,0.1%,89%,nt,4.8,nt
Cc1ccc(S(=O)(=O)NN=Cc2cc(Cl)ccc2O)cc1,-4,nt,2.9%,nt,nt,-1.4,nt
Cc1nn(C)c(C)c1S(=O)(=O)N1CCC(CO)(Cc2ccc(Cl)cc2)CC1,2,-2.1,3.4%,0.2%,10%,1.0,-7
Cc1cccc(-n2c(=O)c3c(c4cc(C)ccc4n3C)n(CC(=O)Nc3ccc(C)cc3C)c2=O)c1,-2,nt,0.4%,-4.8%,nt,2.3,nt
